KCNQ2 pot – potentiators of rat KCNQ2 potassium channel; actives 0.54% (n = 310,000); B-score at 10 µM; Potassium voltage-gated channel subfamily KQT member 2 (Rattus norvegicus), O88943; CHO-K1 KCNQ2, FluxOR thallium flux fluorescence; active compounds read high;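 active means fluorescence ratio B-score at least 3 SD of library B-scores, with initial fluorescence B-score within 3 SD, cut at about 5.3 in these data; same plate scores as AID 2156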;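 further: B-score of peak minus minimum over baseline fluorescence ratio after K+ and Tl+ stimulus; positive B-score means potentiation of KCNQ2 with more thallium influx and brighter signal; only the inactives scoring about 0 or higher are listed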
Target sequence (O88943 whole entry, looked up): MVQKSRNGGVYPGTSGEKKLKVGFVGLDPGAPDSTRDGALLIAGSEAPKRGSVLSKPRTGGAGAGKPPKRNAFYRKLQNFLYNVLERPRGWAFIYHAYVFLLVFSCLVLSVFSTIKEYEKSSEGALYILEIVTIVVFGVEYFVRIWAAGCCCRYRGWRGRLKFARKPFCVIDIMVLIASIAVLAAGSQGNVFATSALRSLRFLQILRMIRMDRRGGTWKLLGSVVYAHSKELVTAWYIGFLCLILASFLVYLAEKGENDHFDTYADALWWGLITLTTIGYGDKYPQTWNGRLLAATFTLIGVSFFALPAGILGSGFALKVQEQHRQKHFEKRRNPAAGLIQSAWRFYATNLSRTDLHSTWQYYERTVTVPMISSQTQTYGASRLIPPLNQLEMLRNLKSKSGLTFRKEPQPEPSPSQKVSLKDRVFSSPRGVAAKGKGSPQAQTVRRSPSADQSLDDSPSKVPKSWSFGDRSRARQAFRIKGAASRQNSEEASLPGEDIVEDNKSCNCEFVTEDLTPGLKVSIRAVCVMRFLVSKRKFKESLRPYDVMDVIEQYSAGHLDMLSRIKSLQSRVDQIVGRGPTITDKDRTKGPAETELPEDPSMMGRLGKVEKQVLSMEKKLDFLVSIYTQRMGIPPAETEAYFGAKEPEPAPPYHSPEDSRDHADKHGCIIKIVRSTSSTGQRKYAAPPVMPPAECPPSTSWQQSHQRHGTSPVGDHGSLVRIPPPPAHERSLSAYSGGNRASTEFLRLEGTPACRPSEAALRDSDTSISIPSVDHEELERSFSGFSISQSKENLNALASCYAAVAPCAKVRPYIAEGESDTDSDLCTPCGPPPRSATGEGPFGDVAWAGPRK
KCNQ2 pot baseline – recorded beside KCNQ2 pot, whose call it bears; B-score; compound at 10 µM; measured here: initial fluorescence intensity artifact check;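 brightness before thallium and not channel activity; 0 = typical well and far values either way flag optical interference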
The depositor's hits bear a star.

SMILES	KCNQ2 pot	KCNQ2 pot baseline
CCSc1ccccc1C(=O)N1CCN(c2ccc([N+](=O)[O-])cc2)CC1	0.94	-0.58
N#C/C(=C\c1ccc[nH]1)C(=O)N1CCCCC1	0.72	0.92
CC(C)Cn1c(SCC(=O)N2CCN(S(=O)(=O)c3ccccc3)CC2)nc2ccccc21	2.08	1.72
CCOC(=O)CN1CC23C=CC(O2)C(C(=O)NC2CCCCC2)C3C1=O (stereo not given)	1.26	-0.32
Cc1cc(C(=O)Nc2ccc3c(c2)CCC3)ccc1[N+](=O)[O-]	0.01	0.08
O=C1CSC(=S)N1/N=C/c1ccc(O)c(O)c1O	0.22	0.56
CCn1c(C(=O)N2CCC(C(=O)N3CCN(c4ccccn4)CC3)CC2)cc2sccc21	1.8	-1.62
Cc1ccc(N(Cc2cc(=O)[nH]c3ccccc23)C(=O)C(C)C)cc1	2.04	-2.48
CCOC(=O)c1c(-c2ccccc2)nc2ccccn12	0.4	-1.52
COc1ccccc1-c1nnc(-c2ccc(C)cc2)o1	1.18	0.03
CC1(C)Cc2ccccc2-c2nnnn21	0.02	0.9
O=C(Cn1nnc(-c2ccccc2Cl)n1)N/N=C/c1ccc2c(c1)OCO2	1.57	0.4

Individual results from the results shown:
N#C/C(=C\c1ccc[nH]1)C(=O)N1CCCCC1 in KCNQ2 pot baseline → 0.92
Cc1ccc(N(Cc2cc(=O)[nH]c3ccccc23)C(=O)C(C)C)cc1 in KCNQ2 pot → 2.04
Cc1cc(C(=O)Nc2ccc3c(c2)CCC3)ccc1[N+](=O)[O-] in KCNQ2 pot → 0.01
CC1(C)Cc2ccccc2-c2nnnn21 in KCNQ2 pot → 0.02
COc1ccccc1-c1nnc(-c2ccc(C)cc2)o1 in KCNQ2 pot baseline → 0.03

Further structures follow.
SMILES	KCNQ2 pot	KCNQ2 pot baseline
Cc1ccccc1Sc1ncccc1[N+](=O)[O-]	0.13	-0.61
CCOC(=O)c1c(-c2ccncc2)csc1N	2.8	0.03
CCOc1ccc(CN(C)CC(=O)Nc2cc(C)c(C)cc2[N+](=O)[O-])cc1	0.01	-0.52
COc1cc2c(cc1OC)CN(C(=O)c1ccncc1)CC2	0.64	1.01
COc1ccc(-c2cn(-c3ccc(C)c(C)c3)c(=S)[nH]2)cc1OC	0.54	-0.52
O=S(=O)(c1cccnc1)N1CCn2cccc2C1c1ccccc1F (stereo not given)	0.16	1.63
O=C(NCc1ccc(F)cc1)C1CCC(CNS(=O)(=O)c2ccccc2)CC1 (stereo not given)	0.69	0.67
CN1CC2(C)CN(C(c3ccccc3)c3ccccc3)CC(C)(C1)C2O (stereo not given)	0.9	0.31
COc1cccc(-n2nc3c(=S)[nH]nc(C)c3c2C)c1	1.54	1.33
CC1=C(C(=O)N2CCCC(N3CCN(c4cccc(Cl)c4)CC3)C2)OCCO1 (stereo not given)	0.44	-0.38
CC(C)N(C1=CC(=O)OC12CCCCC2)C(C)C	0.02	-0.01
CC(=O)/C(=N/Nc1ccccc1C)N1CCOCC1	1.91	-2.16
CCN(CC)C(=O)CSc1ncnc2sccc12	1.4	0.53
CC(=O)/C(=C(/O)c1ccccc1)c1nc2ccccc2[nH]1	0.16	0.38
COc1cc(CCC(=O)Nc2sccc2C#N)cc(OC)c1OC	1.96	-0.2
O=[N+]([O-])c1ccc(O)c(C=Nc2ccc3oc(Cc4ccc(Cl)cc4)nc3c2)c1	2.32	-0.44
COc1cccc(C(=O)N2CCC(n3nccc3NC(=O)C(OC)c3ccccc3)CC2)c1 (stereo not given)	0.71	-0.12
FCCCOc1ccc(-c2ccnc3ncnn23)cc1	0.34	0.08
O=C(NN1CCN(Cc2ccccc2Cl)CC1)c1ccc(Br)cc1	0.71	-2.42
CCOC(=O)c1c(N)c(C#N)c2n1CCCCC2	1.13	0.04
O=S1(=O)CCC(NC(=S)N2CCCCCC2)C1 (stereo not given)	0.57	-2.2
CNC(=O)CC12CC3CC(CC(C3)C1)C2	1.53	-0.05
CCOc1ccccc1NC1=NC2CS(=O)(=O)CC2S1 (stereo not given)	0.05	0.08
COc1ccc(CNc2nc3ccccc3n2C(C)C)c(O)c1	0.02	-1.92
O=C1CCCC(=O)C1=Cc1c[nH]c2ccccc12	0.07	1.22
Cc1cccc(Nc2ccccc2C(=O)OCC(=O)N2CCOCC2)c1C	4.44	-0.01
C=CCOc1c(CNc2ccc(C(=O)O)cc2)cccc1OC	0.17	-0.73
Cc1cccnc1NC(=O)C1CCC1	0.64	-1.84
Cc1cc(SCC(=O)N/N=C/c2ccc(C(=O)O)cc2)nc2ccccc12	0.43	-0.12
CCN(CC)c1ccc(C2C(C(=O)Nc3ccccn3)=C(C)NC3=C2C(=O)CC(C)(C)C3)cc1 (stereo not given)	0.36	-0.23
O=C(N/N=C/c1ccccc1O)c1cccc2ccccc12	0.23	0.06
CCOC(=O)c1c(O)c2c([nH]c1=O)CCCC2	0.31	0.69
COc1cc(C(=O)O)ccc1OCc1c(C)noc1C	1.5	-0.18
Cc1ccc(-n2c(SCC(=O)Nc3nccs3)nc3c(c2=O)SCC3)cc1	1.19	-3.38
COc1ccc(NC(=S)NCc2ccc(F)cc2)cc1	2.31	0.82
CC(C)(C)c1ccc(OCC(=O)NCC(c2cccs2)N2CCOCC2)cc1 (stereo not given)	0.26	0.04
NS(=O)(=O)c1cc(C(=O)Nc2ccc3c(c2)CCC3)ccc1Cl	1.3	0.01
COc1ccc(C(CNc2ncnc3sc(C)c(C)c23)N(C)C)cc1 (stereo not given)	0.46	-0.46
N#CC1=C(SCc2ccccc2)NC(=O)CC1c1cccc(O)c1 (stereo not given)	0.34	1.11
O=C(O)c1ccc(N2C(=O)C3C4c5ccccc5C(Br)(c5ccccc54)C3C2=O)cc1 (stereo not given)	0.7	-0.75
c1ccc(C[C@H]2CNCCN2CC2CCCCC2)cc1	0.56	1.22
COc1ccc(OCCN2CCN(C(=O)c3ccc(OC(F)F)c(OC)c3)CC2)cc1	0.53	0.97
Cc1nnc(NC(=O)c2cccc(S(=O)(=O)N3CCOCC3)c2)s1	0.81	0.04
COc1ccc(NC(=S)NN2CCN(C)CC2)cc1OC	0.01	-0.73
COc1cc(NC(=O)Cn2nnc(-c3ccncc3)n2)cc(OC)c1	0.28	-0.01
O=C(Nc1ccc(-c2cnco2)cc1)c1ccc(Cl)cc1	0.06	0.98
O=C(CSc1nnc(CNC(=O)c2c(F)cccc2F)o1)NCc1ccco1	0.96	0.5
CN(C)CCn1c(=O)n(-c2cccc(Cl)c2)c(=O)c2c3c(sc21)CCCCC3	0.03	-1.36
CC1(C)CC(=O)C(C=NCCc2ccc(O)cc2)=C(O)C1	1.23	-0.37
CC(=O)C1CCC2C3CCC4=CC(=O)CC[C@]4(C)[C@@]3(F)C(O)C[C@]12C (stereo not given in full)	0.06	-1.44
CCn1nnc(NC(=O)c2cccc(-c3cc4ccccc4oc3=O)c2)n1	0.42	0.03
COc1cccc(C(=O)NCCS(=O)(=O)N2CCCCC2)c1	0.92	-1.63
Cc1ccc(CS(=O)Cc2ccc(C(=O)NCCc3ccccc3)o2)cc1 (stereo not given)	0.43	0.91
COc1ccc(-c2nnc3n2N=C(C)CS3)cc1	2.59	-0.53
CCCOc1ccc(C(=O)Nc2ccc(N3CCN(C(C)=O)CC3)cc2)cc1	0.52	0.81
Cc1cccc(NS(=O)(=O)c2cc3c4c(c2)C(C)C(=O)N4CCC3)c1 (stereo not given)	0.58	0.38
COc1c(C)cc(Br)cc1C(=O)Nc1ccc(N2CCN(S(C)(=O)=O)CC2)cc1	0.23	-0.08
CCc1ccccc1NC(=O)CSc1n[nH]c(-c2cccnc2)n1	1.11	-0.35
CN1C(C(=O)NCc2cccc(Br)c2)CC2Cn3c(nc4cc5ccccc5cc43)C21 (stereo not given)	0.07	-0.21
ON=C1c2cc(OCCN3CCCCC3)ccc2-c2ccc(OCCN3CCCCC3)cc21	0.01	1.03

Structures listed so far with a COOH group, in the order listed:
SMILES	KCNQ2 pot	KCNQ2 pot baseline
C=CCOc1c(CNc2ccc(C(=O)O)cc2)cccc1OC	0.17	-0.73
Cc1cc(SCC(=O)N/N=C/c2ccc(C(=O)O)cc2)nc2ccccc12	0.43	-0.12
COc1cc(C(=O)O)ccc1OCc1c(C)noc1C	1.5	-0.18
O=C(O)c1ccc(N2C(=O)C3C4c5ccccc5C(Br)(c5ccccc54)C3C2=O)cc1 (stereo not given)	0.7	-0.75

Record cards (already shown).
CC1(C)CC(=O)C(C=NCCc2ccc(O)cc2)=C(O)C1 is entered as KCNQ2 pot = 1.23; KCNQ2 pot baseline = -0.37
COc1ccc(-c2nnc3n2N=C(C)CS3)cc1 is entered as KCNQ2 pot = 2.59; KCNQ2 pot baseline = -0.53

(listing goes on)
SMILES	KCNQ2 pot	KCNQ2 pot baseline
N#Cc1cccc(-c2cn(S(=O)(=O)c3ccc(Cl)cc3)nc2N)c1	0.65	1.65
CC(=O)N1CCc2cc(Br)cc(S(=O)(=O)NCC3CCCO3)c21 (stereo not given)	2.38	-0.43
COc1ccc(OC)c2[nH]c(=O)c(CCNC(=O)Cc3cccs3)cc12	0.45	-0.39
O=C(Nc1ccc(N2CCN(C(=O)c3ccco3)CC2)c(Cl)c1)c1c(F)c(F)c(F)c(F)c1F	0.79	-1.7
O=C1Cc2ccccc2N1c1c(Cl)cccc1Cl	0.43	-0.29
O=C(Nc1ccc2nccnc2c1)Nc1ccccc1Cl	1.05	0.98
COc1ccc(OC)c(C2C(C(=O)c3ccccc3)=C(C)Nc3nc4ccccc4n32)c1 (stereo not given)	0.44	-0.12
O=C(Cc1ccccc1)NCC(=O)N1CCCCC1	1.09	-1.48
Cn1c(SCC(=O)Nc2ccccc2Br)nnc1-c1cnccn1	0.17	-0.39
CCOC(=O)c1ccc(Nc2nc(C(=O)OCC)nc3ccccc23)cc1	1.06	-1.34
Cn1c(SCC(=O)NCCc2ccc(S(N)(=O)=O)cc2)nc2ccccc2c1=O	0.92	1.25
CN(C)c1ccc(C=Nc2cnn(C)c2C(N)=O)cc1	0.26	-0.55

Part of the list above, reformatted:
SMILES | KCNQ2 pot | KCNQ2 pot baseline
Cc1ccccc1Sc1ncccc1[N+](=O)[O-] | 0.13 | -0.61
CCOC(=O)c1c(-c2ccncc2)csc1N | 2.8 | 0.03
CCOc1ccc(CN(C)CC(=O)Nc2cc(C)c(C)cc2[N+](=O)[O-])cc1 | 0.01 | -0.52
COc1cc2c(cc1OC)CN(C(=O)c1ccncc1)CC2 | 0.64 | 1.01

Next structures.
SMILES	KCNQ2 pot	KCNQ2 pot baseline
Cc1ccc(NS(=O)(=O)c2c(C)ccc3nsnc23)c([N+](=O)[O-])c1	1.74	-0.32
O=C(NCc1ccccc1)C(=O)Nc1nc(-c2ccccc2)cs1	0.27	-2.49
O=c1cc(C(F)F)oc2c1ccc1ccccc12	1.72	-0.84
C/C(=N\N=C(N)N)c1ccc(C)c(C)c1	2.9	-0.65
CCO[C@H]1OC(C(=O)NCc2ccccc2)=C[C@@H](c2coc3ccccc3c2=O)[C@@H]1CCCO	0.5	-0.96
O=C(NCC1(c2ccccc2)CCCC1)c1ccco1	0.15	-1.2
COC(=O)c1cccc(C(=O)Nc2ccc(C)cc2Br)n1	1.16	-0.23
Cc1cc(C)n2ncc(C(=O)Nc3cccc(O)c3)c2n1	0.74	-1.29
CCn1c(C(O)c2cc(OC)c(OC)c(OC)c2)nc2ccccc21 (stereo not given)	1.07	-0.52
CCC(CC)c1nnc(NC(=O)C2CC(=O)N(c3ccc4c(c3)OCCO4)C2)s1 (stereo not given)	0.89	0.33
CCOC(=O)CNC(=O)N1CCCC(C(=O)c2ccccc2SC)C1 (stereo not given)	0.5	0.15
O=C(Cc1ccccc1)NC(=S)Nc1ccc2oc(-c3ccccc3)nc2c1	0.9	-1.93
CCOC(=O)C(C)Oc1ccc(OCc2ccccc2)cc1 (stereo not given)	0.1	-0.86
CCOC(=O)C1CCCN(C(=O)COC(=O)c2ccc(C#N)cc2)C1 (stereo not given)	0.85	0.87
Cc1ccc(OC(=O)CCC(=O)Nc2ccc(C)c(C)c2)cc1	1.42	-0.53
CCCC(=O)Nc1c(-c2ccccc2Cl)c(=O)c2ccccc2n1C	0.47	-1.35
COC(=O)NNC(=O)/C=C/c1ccccc1	0.56	-0.01
O=C(COc1ccccc1Cl)NCCNC(=O)c1ccco1	1.1	-1.55
COc1ccc(/C=N/Nc2nc3ccccc3[nH]2)cc1OC	0.76	-0.77
O=C1NC(=S)N(C(=O)c2ccc(F)cc2)/C1=C/c1cccnc1	0.56	0.01
CCOc1cc(C(C(=O)NCC2CCCO2)N(C(=O)Cn2nnc3ccccc32)c2ccccc2C(C)=O)ccc1O (stereo not given)	0.84	-0.41
O=C(c1cc2c(=O)n3ccccc3nc2s1)N1CCN(Cc2ccccc2)CC1	1.84	1.32
Cc1cc(N2CCOCC2)n2cc(-c3ccc(F)cc3)nc2n1	0.05	0.88
CCOc1ccc(NC(=O)CSc2n[nH]c(=O)n2-c2ccccc2)cc1	0.37	-0.93
COc1ccc(C)cc1NC(=O)CN1CCN(c2ccccn2)CC1	0.36	-0.93
COC(=O)C(C)N=Cc1ccccc1 (stereo not given)	0.14	-1.54
CC1=NNC(=O)C1CC(=O)N/N=C/C=C/c1ccccc1 (stereo not given)	8.79*	2.42*
Cc1ccc(C(=O)N/C(=C\c2cccc([N+](=O)[O-])c2)C(=O)OCN2C(=O)c3ccccc3C2=O)cc1	0.99	-0.59
COc1cc(C(=O)Nc2ccccc2-c2nnn(CC(N)=O)n2)cc(OC)c1OC	0.82	-0.28
Cc1cc(C)nc(/N=C(\N)Nc2ccc(S(=O)(=O)Nc3nc(C)cc(C)n3)cc2)n1	0.46	-0.07
Cc1occc1-c1nnc(SCC(=O)N2CCOCC2)n1Cc1ccco1	0.03	-1.35
CC(=O)c1c(N)n(C)c(=O)n(C)c1=O	1.23	-0.71
CC1CCCC(NC(=O)CSc2ncccc2C(=O)O)C1C (stereo not given)	0.94	-0.37
O=C(Cn1c(=O)[nH]c2ccsc2c1=O)N1CCN(c2ccc(F)cc2)CC1	1.82	-1.51

High-throughput results from PubChem.

An excerpt; rates above refer to the full screens.
